BasE inh = BasE siderophore enzyme inhibitors, primary screen, biochemical, Acinetobacter baumannii ATCC 17978, fluorescence polarization. purified BasE, fluorescence polarization binding displacement. inhibition, % (test concentration not listed). 0.1% of 84,000 active;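 active = both replicates above 25% with normal brightness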;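 also: 0% = negative plate control signal and 100% = positive plate control signal; stock transfer was 100 nL into about 30 µL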
LANA-nucl inh = inhibitors of KSHV LANA-nucleosome binding, primary screen, biochemical, fluorescence polarization, FITC-LANA1-23, chicken nucleosomes; FITC-LANA1-23 / chicken nucleosome fluorescence polarization; active compounds read low; z-score (concentration not given with the values); 0.3% of 51,000 active;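 active = both repeat wells score below -2 in polarization z-score versus plate sample wells, excluding overly bright wells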;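 also: 100 nL library stock added to about 30 µL; numbers are from one replicate; some results filed as inactive read as strong as hits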
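Test system: purified chicken nucleosomes with FITC-labelled LANA N-terminal peptide (1-23); Input: 240 nM purified chicken nucleosomes (480 nM peptide binding sites), final; Medium: TEN-BT buffer, pH 7.5; Timing: 10–45 min, room temperature; Technique: fluorescence polarization, 480 nm excitation, 535 nm parallel and perpendicular emission; Replication: duplicates.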
Numbers without * were called inactive; nt = no result given; & = joins results of further samples. This is a subset; the hit share may differ from the screen's.

structure | BasE inh | LANA-nucl inh
O=C(COC(=O)c1ccc(Cl)nc1)NCc1ccccc1Cl | -0.1 | nt
CN(C(=O)COc1ccccc1)C1CCS(=O)(=O)C1 (stereo unspecified) | -0.8 | 1.3
Cc1csc(=NCC(=O)NCc2ccccc2)n1CC(=O)NCc1ccccc1 | 1.1 | nt
Cc1ccc2onc(CNC(=O)N3CCN(C)CC3)c2c1 | -1.1 | 0.26
CCOC(=O)C1=C(O)c2ccccc2C1=O | 2.2 | nt
O=C(O)C(Cc1ccccc1)P(=O)(O)CN1CCOCC1 (stereo unspecified) | -1.2 | -0.17
O=C(Nc1ccc(F)cc1F)N1CCN(Cc2ccccc2)CC1 | nt | 0.049
Cc1nc(NS(=O)(=O)c2ccccc2)sc1NC(=O)OCCOc1nc(N(C)C)nc(N(C)C)n1 | -0.2 | 0.2
CCOC(=O)COc1ccc2c(c1)C(=O)CC(C)(c1cccnc1)O2 (stereo unspecified) | -1.8 | -0.068
CCCN1CCN(c2ccc(S(C)(=O)=O)cc2S(C)(=O)=O)CC1 | -4.8 | nt
Nc1[nH]nc(Nc2ccccc2)c1S(=O)(=O)c1ccccc1 | 0.0 | 0.96
N#CCCSc1ccc(F)cc1 | 4.1 | nt
Cc1cc(=O)[nH]c(SCC(=O)Nc2ccc(N3CCOCC3)c(Cl)c2)n1 | -0.1 | -0.15
CCOC(=O)c1cc(C#N)c(SCc2ccc(C#N)cc2)nc1C | 1.3 | nt
O=c1[nH]c2ccccc2n1CN1CCc2ccccc2C1 | -2.8 | nt
CC(=O)O/N=C(/N)c1cnn2c(C(F)(F)F)cc(C(F)(F)F)nc12 | -0.2 | 0.019
Cc1ccc(Nc2nc3ccccc3nc2Nc2c(C)n(C)n(-c3ccccc3)c2=O)cc1 | 0.8 | nt
O=C(O)Cn1nnc(COc2ccccc2)n1 | 4.4 | nt
Cc1cc(-c2csc(/N=C/N(C)C)n2)c(C)n1-c1ccc(F)cc1 | 2.7 | nt
CC(C)CNC(=O)C1CCCN1C(=O)Nc1ccccc1 (stereo unspecified) | 0.5 | -1.4
CC(C)Cn1c(=S)[nH]c2scc(-c3cccs3)c2c1=O | 1.2 | nt
CCN(CC)CCC1S(=O)(=O)C(C(=O)OC)C(c2ccc(OC)cc2)C(C(=O)OC)S1(=O)=O (stereo unspecified) | -0.1 | -0.18
CC1(n2c(=O)n(Cc3ccccc3)c3ccccc32)CSC1 | 1.0 | nt
O=C(CSc1nc(=O)n2ccccc2n1)NCc1ccccc1 | -0.4 | -0.42
O=C(C1CC1)N1CCN(c2ncccn2)CC1 | -1.8 | nt
Cc1cc(C(=O)CSc2nncn2C)c(C)n1-c1ncn[nH]1 | 0.4 | nt
CNC(=O)NC(=O)C(Sc1nnnn1C1CC1)c1ccccc1 (stereo unspecified) | -0.7 | nt
Cc1ccc(C(=O)Nc2ccc(C(=O)N3CCCCC3)cc2)o1 | -3.1 | 2.6
O=C(COC(=O)Cc1n[nH]c(=O)c2ccccc12)NCC1CCCO1 (stereo unspecified) | 1.4 | nt
O=C(Nn1c(=S)[nH]c2ccccc2c1=O)c1ccco1 | -2.0 | -0.32
O=C(NNc1ccccn1)Nc1ccc(Cl)cc1 | 7.5 | 0.2
CC1Cc2cc(CSC(=N)N)ccc2O1 (stereo unspecified) | -1.0 | -1.1
Cc1cc(C(=O)CSc2nnc(-c3ccco3)n2C)c(C)n1C1CC1 | -0.3 | nt
CC1C(=O)Nc2ccccc2N1C(=O)c1ccccc1 (stereo unspecified) | nt | 2.6
CSc1ccc(-c2nnc(NC(=O)/C=C/c3cccs3)o2)cc1 | 1.7 | -0.036
CC(C)CSc1nc(-c2ccco2)c(C#N)c(=O)[nH]1 | 0.7 | nt
Cn1c(N)c(C(=O)NCc2ccccc2)c2nc3ccccc3nc21 | -1.5 | 0.5
CN1CCN(c2ccccc2NC(=O)c2ccc(Br)o2)CC1 | 1.8 | -0.41
Cc1cc(=O)[nH]c(/N=C(\N)Nc2ccccc2)n1 | 3.8 | nt
CC(C)(C)C1CCc2nc(N)c3c(=O)oc4ccccc4c3c2C1 (stereo unspecified) | 4.8 | nt
CCN(CC)C(=O)Cn1cc(/C=C(\C#N)C(N)=O)c2ccccc21 | 3.5 | 0.049
CC(=O)NC(=S)Nc1ccc(S(=O)(=O)N2CCOCC2)cc1 | 0.3 | -0.9
O=C(Cc1n[nH]c(=O)c2ccccc12)OCCCn1c(=O)[nH]c2ccccc21 | -2.7 | nt
N#CCc1ccc(NC(=O)CC(CC(=O)O)c2ccccc2)cc1 (stereo unspecified) | 2.9 | -0.084
CCN(CC)CC(O)Cn1c(=O)n(CC(O)CN(CC)CC)c(=O)n(CC(O)CN(CC)CC)c1=O (stereo unspecified) | 0.0 | -1.1
COC(=O)c1sccc1NNS(=O)(=O)c1ccccc1 | 2.5 | -0.39
N#CC(C#N)=C1CSc2ccccc2N1 | 0.5 | nt
CCCCOc1cccc2c1CCN(CC)C2=O | -1.0 | -1.5
CCc1cc2c3c([nH]c2cc1S(=O)(=O)NC1CCCC1)CCCC3=O | -0.4 | 0.16
Cn1c(C(C#N)C(=O)c2ccc(S(=O)(=O)N3CCOCC3)cc2)nc2ccccc21 (stereo unspecified) | 11 | nt

Additional compounds follow:
structure | BasE inh | LANA-nucl inh
c1cc2n[nH]nc2cn1 | 2.1 | nt
Nc1nc(SC#CC(F)(F)F)ns1 | 2.2 | -0.69
O=S(=O)(c1ccccc1)c1nnn2c1nc(N1CCCC1)c1cc(Cl)ccc12 | -0.5 | -0.93
c1ccc(CN2CCN(Cc3ccccc3)C2c2c[nH]c3ccccc23)cc1 | 1.7 | nt
O=C(OCC1COc2ccccc2O1)c1c(F)cccc1F (stereo unspecified) | 2.3 | nt
O=C1CSc2sc(=S)sc2S1 | 28* | nt
COc1cc(OC)nc(/N=C/NO)n1 | 2.2 | nt
CC1CN(Cn2nc(-c3cccc(S(=O)(=O)N4CCOCC4)c3)oc2=S)CC(C)O1 (stereo unspecified) | 3.1 | nt
O=C(CCCN1C(=O)c2ccccc2C1=O)Nc1ccc(S(=O)(=O)NC2CCCCC2)cc1 | 1.8 | -0.77
Cc1ccccc1N(C)C(=O)Cn1cnc2onc(C)c2c1=O | 2.3 | nt
CCOC(=O)CSc1nnc(COc2cccc(C)c2)o1 | 0.2 | 0.67
COc1cccc(-c2nnc(SC3CCOC3=O)n2C)c1 (stereo unspecified) | 1.1 | nt
O=C(CN1C(=O)c2ccccc2C1=O)Nc1ccc(N2CCOCC2)cc1 | 0.6 | -0.96
COc1ccccc1C(=O)N1CCCc2cc(C)ccc21 | 2.4 | -1.3
Cc1c(/C=C(\C#N)C(=O)Nc2ccccc2F)cc(C#N)n1C | 1.8 | nt
Cc1onc(-c2ccccc2Cl)c1NC(=O)Nc1cccc(C(F)(F)F)c1 | 2.4 | nt
O=C(O)Cn1ncn2c(c(-n3cccc3)c3c4c(sc32)CCCC4)c1=O | 2.2 | -0.87
CC(CC(=O)O)CC(=O)Nc1cccc(C(=O)O)c1 (stereo unspecified) | 0.6 | nt
Oc1c(N=Nc2ccc3c(c2)OCO3)sc2nc3ccccc3n12 | 0.1 | -0.41
CCOC(=O)N1CCN(C(=S)Nc2ccc(Oc3ccccc3)cc2)CC1 | 3.8 | -0.86
O=C(CN1CCN(c2ccccc2)CC1)Nc1ccccc1 | -3.1 | 1.3
CCOC(=O)c1ccc2[nH]c3c(c2c1)CN(C)CC3 | 0.5 | -0.38
Cc1sc2ncnc(-n3cnc4ccccc43)c2c1C | 1.3 | nt
CCOC(=O)c1[nH]c(CSc2cccc[n+]2[O-])c(C(=O)OCC)c1C | -0.9 | nt
Cn1cnc(S(=O)(=O)Nc2n[nH]c(=S)s2)c1 | 0.3 | -1.8

Pulled one by one from the entries so far, 4 records:
structure | BasE inh | LANA-nucl inh
Cc1onc(-c2ccccc2Cl)c1NC(=O)Nc1cccc(C(F)(F)F)c1 | 2.4 | nt
COc1ccccc1C(=O)N1CCCc2cc(C)ccc21 | 2.4 | -1.3
O=C(CN1CCN(c2ccccc2)CC1)Nc1ccccc1 | -3.1 | 1.3
Cc1c(/C=C(\C#N)C(=O)Nc2ccccc2F)cc(C#N)n1C | 1.8 | nt

Five entries already listed, ordered by the number in LANA-nucl inh, lowest first:
compound	LANA-nucl inh
Cn1cnc(S(=O)(=O)Nc2n[nH]c(=S)s2)c1	-1.8
COc1ccccc1C(=O)N1CCCc2cc(C)ccc21	-1.3
O=C(CN1C(=O)c2ccccc2C1=O)Nc1ccc(N2CCOCC2)cc1	-0.96
Nc1nc(SC#CC(F)(F)F)ns1	-0.69
CCOC(=O)CSc1nnc(COc2cccc(C)c2)o1	0.67

New compounds follow:
structure | BasE inh | LANA-nucl inh
CC(C)(C#N)C(O)c1ccccc1 (stereo unspecified) | -0.9 | -0.21
Cc1nn(C)c2c1c(C(F)(F)F)cc(=O)n2CC(=O)c1c(C)n(C)c2ccccc12 | -0.4 | -0.97
Cc1ccccc1OCC(=O)Nc1ccc(NC(=O)c2cccs2)cc1 | 1.4 | nt
CC(C)OC(=O)c1ccc(-n2cccn2)cc1 | 0.8 | 0.15
COC(=O)c1c(C)oc(C)c1S(=O)(=O)NCc1ccc(OC)cc1 | 1.9 | nt
Cc1ccc(S(=O)Cc2nc(-c3ccc(C(=O)N4CCOCC4)cc3)oc2C)cc1 (stereo unspecified) | -1.7 | -0.32
N#CCOC(=O)c1cc(=O)c2ccccc2o1 | -0.1 | nt
O=C1N(c2ccccc2)C(=O)N(c2ccccc2)C2c3ccccc3C=CN12 (stereo unspecified) | -2.1 | 0.03
O=C(O)C1OC(C(=O)O)C2C1C(F)(F)C2(F)F (stereo unspecified) | -0.4 | nt
CC1(C)OC(=O)C2(C(=O)O1)C1C3C4CC5C6C4C1C6C2C53 (stereo unspecified) | 4.8 | nt
Cc1cc(=O)c(C(=O)O)nn1-c1ccccc1 | -0.9 | nt
C=CCN1C(=O)SC(CC(=O)O)C1=O (stereo unspecified) | 2.3 | -0.11
CC1=C(c2ccc(F)cc2)S(=O)(=O)N=C1Nc1ccc(C)cn1 | 0.3 | nt
CCOC(=O)c1[nH]c(C)c(CN(C(C)=O)c2ccc(OCC)cc2)c1C | -0.8 | 0.4
O=C1CC2(CCN(S(=O)(=O)c3ccccc3)CC2)Oc2ccccc21 | 4.1 | -0.96
Cc1noc(C)c1C(=O)OCCCCN1C(=O)c2ccccc2C1=O | 0.0 | nt
NCc1ccc2[nH]c(=O)[nH]c2c1 | -1.7 | 0.58
N#CCOC(=O)/C=C\c1ccccc1 | nt | -0.61
CN1CCN(C(=O)CSc2nc3ccccc3nc2SCC(=O)N2CCN(C)CC2)CC1 | -0.1 | -0.71
COC(=O)CCC(=O)c1cc(C(C)(C)C)sc1C(C)(C)C | 0.7 | nt
Cc1onc(-c2ccccc2Cl)c1C(=O)OCCN1CCCC1=O | 1.9 | nt
CC1CC(OC(=O)c2ccccc2O)CC(C)(C)C1 (stereo unspecified) | -3.3 | 0.2&-0.44
Clc1ccc(OCc2noc(COc3ccc(Cl)cc3Cl)n2)c(Cl)c1 | -0.4 | 0.62
Cc1ccc(C2=Nn3c(nnc3C3CCCCC3)SC2C)cc1 (stereo unspecified) | 2.9 | nt
O=c1[nH][nH]c2ccc(Cl)cc12 | 1.7 | -0.78

Whole records from above. Order of values: BasE inh	LANA-nucl inh
Record of CC1C(=O)Nc2ccccc2N1C(=O)c1ccccc1 (stereo unspecified) : nt	2.6
Record of CC(C)OC(=O)c1ccc(-n2cccn2)cc1 : 0.8	0.15

Next entries follow:
structure | BasE inh | LANA-nucl inh
CC1=CC(C)(C)N(C(=O)Cc2ccccc2)c2ccccc21 | -0.1 | -0.49
O=C(O)/C=C1/C(=O)Nc2ccccc21 | 1.6 | nt
CC1CC(=O)NN=C1c1ccc(N)c(N)c1 (stereo unspecified) | -1.7 | 0.96
CCN(CC)C(=O)C1=C(C)N=C2SC(C#N)=C(N)N2C1c1cc(OC)ccc1OC (stereo unspecified) | -2.6 | 0.84
CN(CC1COc2ccccc2O1)C(=O)C1(c2ccccc2)CC1 (stereo unspecified) | 2.8 | nt
Cc1cc(C)c(C(=O)c2ccccc2)cc1C(=O)c1ccccc1 | 0.8 | nt
COc1ccc2[nH]c(=O)c(CN(Cc3cccs3)C(=O)c3cccs3)cc2c1 | -0.7 | -0.46
CC(C)c1ccc2occ(CC(=O)Nc3ccc(S(N)(=O)=O)cc3)c2c1 | -0.2 | 0.18
O=C(/C=C/c1cccs1)NC(=S)N1CCCCC1 | 2.3 | nt
O=C(Nc1ccc2c(c1)OCCO2)C1CCN(c2ccc(-c3cccs3)nn2)CC1 | 2.2 | -1.7
COC(=O)C1=C(C)NC(C)=C(C(=O)OC)C1C(=O)OCC(=O)c1ccc2c(c1)NC(=O)CO2 | 1.2 | nt
CCOc1ccc(C(=N/O)/C(C)=N/O)cc1 | -3.4 | 1.3
O=C1CN(C(=O)CSc2ncc(C(F)(F)F)cc2Cl)c2ccccc2N1 | 0.8 | nt
Nc1nnc(-c2cccs2)c(=O)n1N | 31* | nt
COc1ccc(N2CCN(CC(O)c3ccc4c(c3)CCN4C(C)=O)CC2)cc1 (stereo unspecified) | -0.2 | 1
O=C1c2ccccc2C(=O)N1CSc1nnc(Nc2ccccc2)s1 | 0.4 | nt
NC(=S)c1sc(=S)n(-c2ccccc2)c1N | -2.7 | 0.18
O=C(O)c1ncc(C(F)(F)F)cc1Cl | 3.7 | -0.35
O=S1(=O)N=C2CCCCCN2C(c2ccc(N3CCOCC3)cc2)N1 (stereo unspecified) | 0.1 | nt
Cc1ccccc1OCCn1c(=N)n(CCO)c2ccccc21 | -6.4 | 0.47

From PubChem BioAssay
